# Source: PubChem
# Cruzain inh Det: cruzain (T. cruzi) inhibition with detergent; Potency, µM, for the others: max response, negative = inhibition, actives largely listed as inhibitors; actives 0.43% (n = 200,000); purified cruzain, Z-FR-AMC fluorescence, 0.01% Triton; P25779;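 further: plate controls were neutral wells for no effect and buffer without enzyme for full effect; nearly all actives have a fitted effect of over 40% in size; top concentration of the series not given in the record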
# Target sequence (P25779 123-467 limits assumed): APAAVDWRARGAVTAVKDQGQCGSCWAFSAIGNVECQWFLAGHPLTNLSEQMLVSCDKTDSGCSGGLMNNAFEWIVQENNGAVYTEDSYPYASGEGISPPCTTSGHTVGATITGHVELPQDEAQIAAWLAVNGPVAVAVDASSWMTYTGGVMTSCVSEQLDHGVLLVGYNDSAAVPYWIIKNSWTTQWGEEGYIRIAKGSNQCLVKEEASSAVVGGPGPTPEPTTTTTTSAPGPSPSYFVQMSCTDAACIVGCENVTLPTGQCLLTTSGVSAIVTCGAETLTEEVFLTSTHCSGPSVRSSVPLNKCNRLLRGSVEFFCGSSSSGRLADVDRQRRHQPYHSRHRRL
#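 Enzyme 1.5 nM, Z-FR-AMC 2 uM, NaOAc 100 mM pH 5.5, DTT 5 mM, Triton X-100 0.01%; 15 min RT compound preincubation; kinetic ex360/em450, 60 s delta.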
# Cruzain inh noDet: inhibitors of Trypanosoma cruzi cruzain without detergent | Potency, µM, without a hit: max response, negative = inhibition, actives largely listed as inhibitors | purified cruzain, Z-FR-AMC fluorescence, no detergent | actives 2.3% (n = 200,000) | P25779;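 further: plate controls were enzyme without inhibitor for no effect and buffer without enzyme for full effect; nearly all actives have a fitted effect of over 40% in size; top concentration of the series not given in the record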
#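 Purified cruzain at 1.5 nM, pre-incubated 15 min with compound at room temperature in 100 mM sodium acetate pH 5.5, 5 mM DTT, 0.00005% Triton X-100. Reaction started with 2 uM Z-FR-AMC; AMC fluorescence increase over 60 s gives rate.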
# SARS PLpro yeast: SARS-CoV PLP inhibition in yeast; Potency, µM (highest dose often 32.9 µM), for the others: at the highest dose activity, positive = growth rescue; S. cerevisiae expressing SARS-CoV PLpro, growth rescue; control for the full effect not named in the record; AID 485353; actives 0.19% (n = 330,000); active means well fitted rising curve with a large enough effect; inconclusive means small, poorly fitted or top-dose-only effect; inactive means no such curve, though single readings can be large or run the other way; further: 0% is about no effect; nearly all actives have a fitted effect of over 55% in size; growth read by luminescence after 48 h
# StopGo reporter: lowers the luciferase signal of an FMDV 2A StopGo reporter; human cells with a luciferase reporter of 2A StopGo recoding; control for the full effect not named in the record; Potency, µM (series often up to 57.9 µM), for inactives: at the top dose signal change, negative = less light; actives 1.2% (n = 410,000); AID 1159524; active = well fitted falling curve with a large enough effect; inconclusive = small, poorly fitted or top-dose-only effect; inactive = no such curve, though single readings can be large or run the other way; tested in HEK293T cells; further: on the % scale 0 is the no-effect control and ±100 the full control effect; nearly all actives have a fitted effect of over 45% in size; luciferase light after 4 h
# MARV entry inh: Marburg virus entry inhibition. Marburg virus pseudotyped entry inhibition, cell reporter; control for the full effect not named in the record; about a third of the inactives were read at about 46 µM. Potency, µM (highest dose often 37.8 µM), for the others: at the top dose activity change, negative = inhibition, usual class: inhibitors. actives 1.8% (n = 300,000). AID 540276; active = well fitted inhibition curve with a large enough effect; inconclusive = small, poorly fitted or top-dose-only effect, or effect the other way; inactive = flat fitted curve, though single readings scatter; tested in HEK293 cells; about a fifth of its hits are not listed in these tables; further: on the % scale 0 is the no-effect control and ±100 the full control effect; luciferase read-out
# RE007 growth inh: less growth of the S. pombe RE007 Vpr strain; actives 0.21% (n = 360,000); Potency, µM (series often up to 92.2 µM), inactives show at the highest dose activity change, negative = less growth; AID 651644; S. pombe RE007 Vpr strain, BacTiter-Glo ATP luminescence, 24 h; control for the full effect not named in the record; active = well fitted falling curve with a large enough effect; inconclusive = small, poorly fitted or top-dose-only effect; inactive = no such curve, though single readings can be large or run the other way;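 further: on the % scale 0 is the no-effect control and ±100 the full control effect; nearly all actives have a fitted effect of over 50% in size; the assay follows cell death caused by Vpr and the record does not say whether a fall means rescue or toxicity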
#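 Fission yeast RE007 carrying one integrated HIV-1 vpr copy, seeded at OD 0.01 in PMG+AL medium with 23 nL pinned compound. Grown 24 h at 30 degrees; viability read by BacTiter-Glo luminescence after 5 min.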
# NS1 inh: blocks influenza NS1 protein function; S. cerevisiae slowed by influenza A NS1, growth recovery by OD600; Potency, µM (series often up to 46.1 µM), for inactives: at the highest dose activity, positive = more growth; actives 0.4% (n = 270,000); active means well fitted rising curve with a large enough effect; inconclusive means small, poorly fitted or top-dose-only effect; inactive means no such curve, though single readings can be large or run the other way; further: nearly all actives have a fitted effect of over 50% in size
#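 Recovery from NS1-induced slow growth read by OD600 in budding yeast switched to galactose assay medium (pH 6.0, -URA) at 1:100 dilution. Compound 23 nl per well; the matching strain lacking NS1 serves as control.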
# LASV entry inh: Lassa virus entry inhibition | Lassa virus pseudotype entry inhibition, cell reporter; control for the full effect not named in the record | Potency, µM (highest dose often 37.9 µM), without a hit: at the top dose activity change, negative = inhibition, hits mostly inhibitors | actives 1.2% (n = 300,000); active means well fitted inhibition curve with a large enough effect; inconclusive means small, poorly fitted or top-dose-only effect, or effect the other way; inactive means flat fitted curve, though single readings scatter; tested in HEK293 cells; further: on the % scale 0 is the no-effect control and ±100 the full control effect; nearly all actives have a fitted effect of over 50% in size; luciferase read-out
# Active calls of the source: *; ? = inconclusive; . = no result given; & = joins results of further samples; [ ] = another dose, or the depositor's remark. Unless noted, the call rests on the fitted dose curve; in most records, active means well fitted curve in the direction sought with a large enough effect; inconclusive means small, poorly fitted or top-dose-only effect, or another doubt; inactive means no such curve, though single readings can be large; an effect the other way counts as inactive or inconclusive. Potency means the concentration at half of the fitted maximal effect.
SMILES,Cruzain inh Det,Cruzain inh noDet,SARS PLpro yeast,StopGo reporter,MARV entry inh,RE007 growth inh,NS1 inh,LASV entry inh
CN1CCN(NC(=O)C2CC2)CC1,-1.4%,7%,9%,11%,21%,-1%,8%,12%
CNc1nc(NN)nc(Nc2ccccc2)n1,.,.,1%,-1%,.,-3%,19%,.
O=C(NC1CCSC1=O)c1cccc(C(=O)NC2CCSC2=O)c1 (centres undefined),1.5%,4%,7%,-4%,0%,6%,6%,6%
CC(C)(C)c1ccc(O)c(N)c1,2.9%,?,-1%,.,2%,.,9%,.
CCCN(C(=O)CCc1nc(-c2ccc(OC)cc2)no1)c1ccccc1F,-6.8%,9%,.,?,-5%[46.1 µM],.,.,.
COP(=O)(OC)C(Nc1ccc(C)cc1)c1ccc([N+](=O)[O-])cc1 (centres undefined),-1.7%,8%,11%,40%[activator],26%,-19%,-1%,?
CCN(CC)CCNCc1ccc(OCc2ccc(Cl)nc2)c(OC)c1,-0.8%,3%,-16%,20%,?,-14%,-1%,12%
Cc1ccc(C(=O)NCCSc2c(C)[nH]c3ccccc23)cc1C,-7.9%,13%,.,?,-5%[46.1 µM],.,.,?
COc1ccc(CN2C3CCCC2CC(NC(=O)c2cccc(F)c2)C3)cc1 (centres undefined),.,.,?,2%,.,3%,1%,.
Cc1ccc(C(=O)n2ncn(C)c2=S)cc1,.,.,-1%,-9%,.,11%,0%,.
Cc1ccc(OCc2nc(C#N)c(NCCc3ccccc3)o2)cc1,-17%,?,.,0%,28%[46.1 µM],.,.,18%[46.1 µM]
O=C(Nc1scc(-c2ccc(Br)cc2)c1C(=O)O)c1ccccc1F,.,.,.,12%,3.2µM*,10%,.,?
CCOC(=O)c1c(OCCO)nn(-c2ccccc2)c1N,.,.,1%,9%,12%[46.1 µM],3%,.,0%
CN(C)c1ccc(/C=N/N(CCC#N)C2=NS(=O)(=O)c3ccccc32)cc1,.,.,1%,-7%,12%[46.1 µM],1%,5%,0%[46.1 µM]
O=C(NCc1ccccn1)c1cccc(S(=O)(=O)NCc2ccccc2)c1,.,.,-1%,41%[activator],-15%,7%,.,0%
CC(C)(CCl)C(=O)Nc1ccnc(-c2ccncc2)n1,.,.,1%,?,-19%[46.1 µM],0%,.,-2%
CN1C=CC=C/C1=C1\SC(=S)N(CC(=O)O)C1=O,.,.,-2%,21%,?,8%,-1%,-17%[46.1 µM]
COc1ccc(/C=C(\C#N)c2nc3ccccc3[nH]2)cc1O,.,.,1%,8%,?,-14%,-3%,-4%[46.1 µM]
NC(=O)CSc1cn(Cc2cccc(F)c2)c2ccccc12,.,.,1%,-17%,?,1%,.,-13%[46.1 µM]
CCCCCCCCCC(=O)N1CCN(c2cc3c(cc2F)c(=O)c(C(=O)O)cn3CC)CC1,.,.,2%,-17%,.,-14%,7%,.
COc1cc(OC)cc(C(=O)NCC(=O)OCC(=O)Nc2cc(S(C)(=O)=O)ccc2Cl)c1,.,.,0%,6%,.,5%,2%,.
COc1cccc(NC(=O)c2ccc(C(=O)c3ccccc3)o2)c1,.,.,7%,-15%,?,-14%,.,13%[46.1 µM]
Cc1ccccc1CC(=O)Nc1ccc(S(=O)(=O)N2CCOCC2)cc1,.,.,9%,-7%,.,0%,-8%,.
COCCc1nn2c(=O)cc(COC(=O)c3ccccc3C)nc2s1,-4.1%,12%,.,14%,.,.,.,-10%[46.1 µM]
CN(C)/C=N/c1sc2c(c1C#N)CC(C)(C)NC2(C)C,-6.4%,-16%,25%,.,4%,2%,2%[9.22 µM],-1%
SMILES,Cruzain inh Det,Cruzain inh noDet,SARS PLpro yeast,StopGo reporter,MARV entry inh,RE007 growth inh,NS1 inh,LASV entry inh
COc1ccc(/C=C/C(=O)c2ccc(NS(=O)(=O)c3ccc(C)cc3)cc2)cc1O,-5.1%,?,-12%,-18%,?,8%,?,?
O=C(COC(=O)C1CCCC1)Nc1ncc(Cl)cc1Cl,.,.,-7%,-3%,2%,2%,.,16%
Cc1cc(C)nc(SCc2cc(=O)c(OC(=O)c3cc([N+](=O)[O-])ccc3Cl)co2)n1,-0.6%,-12%,-1%,-10%,4%,5%,8%,-2%
CCCC12CN(C(=O)c3ccc([N+](=O)[O-])cc3)CC(C)(CN(C(=O)c3ccc([N+](=O)[O-])cc3)C1)C2=O,.,.,1%,?,?,34%,-4%,5%
CC1CC(C)CN(C(=O)CCNC(=O)Cn2ccc3ccccc3c2=O)C1 (centres undefined),.,.,1%,-6%,-11%[46.1 µM],0%,8%,0%[46.1 µM]
Cc1ccccc1OCC(=O)N/N=C/C=C/c1ccccc1,.,.,-5%,-4%,2%,-15%,.,6%
CN(c1ccccc1)c1nc(N)c([N+](=O)[O-])c(N2CCCC2)n1,.,.,-3%,23%,.,-1%,-11%,.
Cc1cc(S(=O)(=O)Nc2ccc(C(=O)N3CCN(c4ccccc4O)CC3)cc2)ccc1F,.,.,-7%,?,?,-8%,10%,-6%
Cc1cc(C)n(C(=O)Cn2nc([N+](=O)[O-])c(Br)c2C)n1,.,.,2%,-1%,3%[46.1 µM],12%,.,1%[46.1 µM]
Cn1c(CNC(=O)CNC(=O)c2ccc(F)cc2)cc(=O)n(C)c1=O,.,.,?,-12%,.,-11%,-1%,.
COc1ccc(Nc2ncnc3sc(-c4ccccc4)cc23)cc1,-4.8%,32µM*,-8%,-7%,15%,-10%,-4%,-4%
CC(=O)c1cccc(NC(=O)CCNC(=O)c2cccc(C)c2)c1,.,.,0%,-9%,4%[46.1 µM],6%,11%,-17%[46.1 µM]
O=C(CN1C(=O)/C(=C/c2ccccc2)SC1=S)NNC(=O)c1ccccc1O,.,.,14%,12%,?,6%,0%,20%[46.1 µM]
O=C(Nc1cccc(NC(=O)c2cccs2)c1)c1ccc(Br)o1,.,.,-3%,0%,-1%,-6%,-10%,-20%
Cc1ccc(NC(=O)c2nc(S(C)(=O)=O)ncc2N(Cc2ccco2)Cc2ccco2)cc1C,-4.8%,-27%,.,-19%,?,.,.,0%[46.1 µM]
CCOC(=O)c1c(C)[nH]c(C)c1C(=O)CSc1nnc(-c2cc(OC)c(OC)c(OC)c2)o1,-2.4%,21%,-16%,?,13%&13%,-1%,12%,14%
CCN(CC)c1ccc(N2C(=O)CSC2=S)cc1,.,.,1%,0%,0%,-9%,0%,?
CCC(Sc1nc2cc(OC)c(OC)cc2c(=O)n1CCc1ccc(Cl)cc1)C(=O)NCCOC (centres undefined),0.7%,16%,.,-8%,.,.,.,?
CCC(=O)Nc1c(C(=O)Nc2ccc3c(c2)OCCO3)oc2ccccc12,.,.,0%,33%[activator],-4%,-19%,.,?
CCOC(=O)/C(C(=O)Nc1ccc(Br)cc1)=C1/NC(C)(C)Cc2ccccc21,-9.3%,?,-8%,-1%,23%,4%,-2%,?
COc1ccc(N(CC(=O)NCCC2=CCCCC2)S(=O)(=O)c2ccc(C)cc2)cc1OC,.,.,0%,4%,11%[46.1 µM],4%,1%,?
COc1cccc(CNC(=O)c2ccc3nc(-c4ccccc4)c(-c4ccccc4)nc3c2)c1OC,-0.2%,0%,.,-14%,.,.,.,?
NS(=O)(=O)c1ccc(NC2=CC(c3ccc(F)cc3)N(c3ccc(S(N)(=O)=O)cc3)C2=O)cc1 (centres undefined),.,.,0%,-15%,.,-2%,-4%,.
CC(C)C(NC(=O)c1ccccc1F)C(=O)Nc1ccc2c(c1)OCO2 (centres undefined),.,.,2%,37%[activator],?,-4%,.,9%
CCNC(=O)Cn1cnc2c1c(=O)n(C)c(=O)n2C,0.7%,1%,2%,7%,12%[46.1 µM],0%,5%,-21%

# An excerpt from above, reduced to MARV entry inh, Cruzain inh noDet and StopGo reporter.
structure,MARV entry inh,Cruzain inh noDet,StopGo reporter
COc1ccc(N(CC(=O)NCCC2=CCCCC2)S(=O)(=O)c2ccc(C)cc2)cc1OC,11%[46.1 µM],.,4%
O=C(Nc1scc(-c2ccc(Br)cc2)c1C(=O)O)c1ccccc1F,3.2µM*,.,12%
CCCN(C(=O)CCc1nc(-c2ccc(OC)cc2)no1)c1ccccc1F,-5%[46.1 µM],9%,?
Cc1ccc(C(=O)NCCSc2c(C)[nH]c3ccccc23)cc1C,-5%[46.1 µM],13%,?

# (more compounds)
SMILES,Cruzain inh Det,Cruzain inh noDet,SARS PLpro yeast,StopGo reporter,MARV entry inh,RE007 growth inh,NS1 inh,LASV entry inh
C=Cc1ccc(Cn2c(C(=O)O)c(C=O)c3ccccc32)cc1,.,.,1%,-6%,-22%[46.1 µM],?,.,-2%
COC(=O)/C=C/S(=O)(=O)c1ccc(NC(C)=O)cc1,-0.7%,-1%,-3%,0%,17%,6%[3.69 µM],7%,9%
O=C(Nc1nnc(SCc2ccccc2)s1)c1cccs1,-8.2%,?,-6%,79%[activator],15%[46.1 µM],14%,-6%,1%
Oc1ccc(Br)cc1/C=N/NC(=S)NCCc1ccccc1,.,.,-10%,2%,?,?,26%,-13%[46.1 µM]
S=C(NCCc1ccccc1)NC1CC1,-2.9%,-1%,?,10%,-7%,-9%,-7%,-1%
COc1ccc(N/C=C\C(=O)c2ccc(C)cc2)cc1OC,.,.,0%,20%,?,-22%,-5%,-2%[46.1 µM]
CC(Oc1ccc(Cl)cc1)C(=O)Nc1ccc(S(=O)(=O)N2CCOCC2)cc1 (centres undefined),.,.,3%,-13%,-1%[46.1 µM],7%,-5%,3%
O=C(CCSCc1cccc(Cl)c1)N1CCN(c2ccc(Cl)cc2)CC1,0.4%,5%,.,-21%,.,.,.,?
COc1ccc2c(c1)CC(C(=O)NCCc1ccc(S(N)(=O)=O)cc1)CO2 (centres undefined),-1.7%,?,.,-5%,.,.,.,-2%[46.1 µM]
CC1CC(C)CN(C(=O)c2cc3c(s2)CCC3)C1 (centres undefined),0.4%,-11%,13%,14%,4%,-9%,-62%,2%
NC(=O)C1CCN(C(=O)NC(=O)c2ccccc2)CC1,.,.,?,0%,8%[46.1 µM],-5%,8%,-7%[46.1 µM]
